Source: PubChem (National Center for Advancing Translational Sciences (NCATS))
TRPML1 inh: qHTS for Inhibitors of the Human Mucolipin Transient Receptor Potential 1 (TRPML1) | Mucolipin-1 (Homo sapiens), Q9GZU1 | TRPML1-inducible cells, Ca2+ dye fluorescence, FDSS; stronger effect = lower value; inhibition of EC80 agonist-evoked calcium signal | activity change, negative = inhibition, % (concentration not given with the values) | 390,000 tested, 0.02% active; in the data active means activity change below about -50%; inconclusive means about -30% to -50%; inactive means above about -30%;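 also: stimulus is agonist 54-4 at its EC80 concentration; % is scaled to controls: 0 for no effect and ±100 for the full control effect; compound concentration not given in the record; the text of the record puts the active cut at -80%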
Target sequence (Q9GZU1 whole entry, looked up): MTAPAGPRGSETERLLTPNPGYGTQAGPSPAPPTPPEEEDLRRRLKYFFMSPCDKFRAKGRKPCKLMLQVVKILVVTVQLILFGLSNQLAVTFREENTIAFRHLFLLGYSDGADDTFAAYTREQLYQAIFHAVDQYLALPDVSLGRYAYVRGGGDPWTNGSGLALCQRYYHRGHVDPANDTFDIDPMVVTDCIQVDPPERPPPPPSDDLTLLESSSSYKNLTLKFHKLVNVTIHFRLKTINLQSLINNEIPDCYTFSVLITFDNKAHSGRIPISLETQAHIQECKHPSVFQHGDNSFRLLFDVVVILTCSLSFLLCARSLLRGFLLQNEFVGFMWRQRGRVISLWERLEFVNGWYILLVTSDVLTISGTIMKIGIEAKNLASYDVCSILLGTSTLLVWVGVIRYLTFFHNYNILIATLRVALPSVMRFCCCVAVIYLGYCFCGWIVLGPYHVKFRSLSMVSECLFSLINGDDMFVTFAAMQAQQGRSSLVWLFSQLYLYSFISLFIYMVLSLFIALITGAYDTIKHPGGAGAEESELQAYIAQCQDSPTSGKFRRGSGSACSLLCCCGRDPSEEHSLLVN
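Calcium fluorescence in TRPML1-DL cells induced overnight with Tet: a 110 s read after compound pin addition, then a 110 s antagonist read after challenge with 54-4 at 4 uM final (EC80).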
CtBP-E1A blk: qHTS Assay for Inhibitors of the CtBP/E1A Interaction | CtBP / adenovirus E1A interaction (AlphaScreen) | AlphaScreen GST-E1A/His-CtBP binding, 1536-well; stronger effect = lower value; control for the full effect not named in the record | activity change, % (no concentration beside the values) | 340,000 tested, 0.49% active; in the data active means activity change below about -65%; inconclusive means about -30% to -65%; inactive means above about -30%; also: % is scaled to controls: 0 for no effect and ±100 for the full control effect; compound concentration not given in the record
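Steps: dispense buffer (Tris pH 8.0, NaCl 300 mM, TCEP 1 mM, BSA, Tween 20); add 5X protein mix (GST-E1A, His-CtBP, 125 nM each); pin 23 nL compound; 2 h at 37 °C, dark; add 5X beads (50 ug/mL); 1 h; read.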
TRPML1 ag: qHTS for Agonists of the Human Mucolipin Transient Receptor Potential 1 (TRPML1) | 410,000 tested, 0.12% active | Mucolipin-1 (Homo sapiens), Q9GZU1 | activation, % (no concentration beside the values) | TRPML1-expressing cells, Ca2+ dye fluorescence, FDSS; host cell line not named in the record; reference of the full effect not given here; in the data active = activation above about 50%; inconclusive = about 30% to 50%; inactive = below about 30%; also: 0% is about no effect; the text of the record puts the active cut at 80%
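Kinetic FDSS Ca2+ read in Tet-induced TRPML1-DL cells (ABD Ca8 dye plus quencher, 45-90 min RT loading): baseline, then compound, then 110 s agonist window; EC80 agonist 54-4 at 4uM final added afterwards for a 110 s antagonist window.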
D2 ag: Beta-Arrestin HTS for Positive Allosteric Modulators of the Human D2 Dopamine Receptor: Agonists; DiscoveRx PathHunter D2 beta-arrestin, luminescence, 90 min; 100% = 57 uM dopamine signal; 360,000 tested, 0.084% active; activation, % (no concentration beside the values); in the data active = activation above about 40%; inconclusive = about 15% to 40%; inactive = below about 15%; also: compound concentration not given in the record; the text of the record calls up to 30% inactive
Target sequence (P14416 whole entry, looked up): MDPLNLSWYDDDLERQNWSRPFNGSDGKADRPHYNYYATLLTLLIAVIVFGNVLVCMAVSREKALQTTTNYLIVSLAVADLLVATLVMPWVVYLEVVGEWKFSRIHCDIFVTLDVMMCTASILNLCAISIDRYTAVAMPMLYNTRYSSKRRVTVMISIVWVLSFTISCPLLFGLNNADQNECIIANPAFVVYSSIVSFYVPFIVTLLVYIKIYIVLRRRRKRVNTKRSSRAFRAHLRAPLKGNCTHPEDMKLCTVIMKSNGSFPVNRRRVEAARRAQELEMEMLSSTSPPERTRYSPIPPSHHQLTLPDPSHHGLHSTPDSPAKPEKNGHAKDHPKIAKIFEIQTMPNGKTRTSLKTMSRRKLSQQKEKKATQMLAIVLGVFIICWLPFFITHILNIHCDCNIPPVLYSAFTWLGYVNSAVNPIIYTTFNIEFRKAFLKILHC
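Agonist mode: compounds alone added to overnight-plated D2 PathHunter cells for 90 min at 37 C, with 57 uM final dopamine (EC100) defining full response. Beta-arrestin recruitment detected by chemiluminescent reagent, read after 1 h at ambient temperature.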
Six1-Eya2 inh: qHTS Assay for Inhibitors of the Six1/Eya2 Interaction. Homeobox protein SIX1 (Homo sapiens) + Protein phosphatase EYA2 (Homo sapiens), …. AlphaScreen GST-Six1/His-Eya2 binding, biochemical; stronger effect = lower value; control for the full effect not named in the record. activity change, % (no concentration beside the values). 360,000 tested, 0.56% active. AID 651725, 2012; in the data active = activity change below about -65%; inconclusive = about -30% to -65%; inactive = above about -30%; also: % is scaled to controls: 0 for no effect and ±100 for the full control effect; compound concentration not given in the record
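AlphaScreen with GST-Six1 and His-Eya2 (5X mix: 250 nM and 500 nM), glutathione donor and nickel acceptor beads; buffer 50 mM Tris pH 8.0, 300 mM NaCl, 1 mM TCEP; 1 h at 37 C in the dark.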
PINK1 expr mod: A Quantitative High throughput Screen to Identify Chemical Modulators of PINK1 Expression; PINK1 immunofluorescence, high-content cytometry, 24 h; Potency, µM (highest dose often 76.6 µM), for inactives: top-dose activation (PINK1 increase), usual class: activators; 410,000 tested, 0.2% active; active = well fitted activation curve with a large enough effect; inconclusive = small, poorly fitted or top-dose-only effect; inactive = flat fitted curve, though single readings scatter; cell line not stated here;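 also: potency is read from the fitted curve at half-maximal effect; % of control where 0% means no effect; nearly all actives have a fitted effect of over 65% in size; a mitochondrial uncoupler was the plate control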
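Decision-based qHTS: stable cells, 24 h exposure to five compound concentrations, CCCP as control. Fixed cells stained for PINK1 plus nuclear, mitochondrial and cell markers, cytometer read.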
Starred values were filed as active, the others as inactive; ? = inconclusive; · = no result given; & = joins results of further samples; [ ] = another dose, or the depositor's remark.

SMILES	TRPML1 inh	CtBP-E1A blk	TRPML1 ag	D2 ag	Six1-Eya2 inh	PINK1 expr mod
CC(=O)Nc1ccc(S(=O)(=O)CCC(=O)O)cc1	-2	8	0.0	-1.9	1	-1.2%[38.3 µM]
Cc1ccc(N2CC(C(=O)Nc3ccncc3)CC2=O)cc1 (stereo not drawn)	23	-1	5.2	1.0	1	-1.2%[38.3 µM]
COC(=O)CSc1nc(N)c(C#N)c(C(C)C)c1C#N	-13	0	2.1	-1.9	-3	-1.4%
Cc1ccc(-c2cn3nc(N4CCCC(C(=O)NCc5ccc(F)cc5)C4)sc3n2)cc1 (stereo not drawn)	11	·	0.8	·	·	0.4%
NC(=O)C1CC(=O)N(c2ccc(OCc3ccc(F)cc3)cc2)C1 (stereo not drawn)	4	7	-0.1	-0.2	4	0.4%
Cc1nc2nncn2c(Nc2ccc(F)cc2)c1C	-16	·	-1.1	·	·	-0.5%
OCCNc1nc(Nc2ccc(O)cc2)nc2ccccc12	-10	·	0.5	2.4	-24	-0.6%
COc1ccc(Cc2nc(-c3ccc(Cl)cc3)no2)cc1	-4	45	0.2	-5.9	52	0.6%
CC1OC(CCc2cccc(Cl)c2)Cc2[nH]c(=S)[nH]c(=O)c21 (stereo not drawn)	·	-13	-0.6	·	0	-1.1%
Cc1ccc(-c2cnn(-c3ccccc3)c2N)cc1	1	-20	3.4	-1.9	-16	-1.0%
CN(c1ccccc1)S(=O)(=O)c1ccc(NC(=O)C2CCCCC2C(=O)O)cc1 (stereo not drawn)	3	-2	-0.6	-1.9	-6	-0.4%
CN(CCCNC(=O)CSc1cc(=O)n(C)c2cc(Cl)ccc12)Cc1ccccc1	10	-5	-0.4	-1.6	-12	8.5%
O=C(NCc1ccccc1)c1cc(=O)[nH]c2ccccc12	-4	-16	-1.0	-2.6	-5	0.8%
CN(C)c1nc(N(C)C)nc(N(C#N)CCOc2ccccc2)n1	-2	12	2.4	-2.7	14	2.2%
NC(COCc1ccccc1)c1csc(Nc2cc(NCCCO)ncn2)n1 (stereo not drawn)	·	-86*	-0.8	-1.2	-86*	0.7%
COC(=O)c1ccc(NC(=O)C2C3C=CC(C3)C2C(=O)O)cc1 (stereo not drawn)	-17	4	-0.3	-2.5	6	6.8%
Cc1c(N(C)C(=O)C2CCCN2S(=O)(=O)c2ccccc2)c(=O)n(-c2ccccc2)n1C (stereo not drawn)	-9	6	-0.8	-0.2	-1	3.5%[38.3 µM]
CCc1ccc(NC2=NCC(=O)N2Cc2ccc3c(c2)OCO3)cc1	-7	-1	0.1	-3.8	-6	0.4%
Cc1cc(NC(=O)/C=C/c2ccc(Br)cc2)no1	17	-6	-0.4	-4.2	0	2.0%
CSCCC(NC(=O)c1ccccc1Br)C(=O)NCCCn1nc(C)cc1C (stereo not drawn)	19	0	-0.7	-1.1	3	2.9%
Cc1cc(NC(=O)c2ccco2)c(=O)n(Cc2cccc(C(F)(F)F)c2)c1	-3	-1	2.1	-4.2	6	0.1%
O=C1C=CC2(O[C@H](c3ccccc3)[C@@H](c3ccccc3)O2)[C@H](Sc2ccccc2O)C1	-3	-2	2.7	-7.9	?	10%
CCS(=O)(=O)N1Cc2ccccc2CC1C(=O)Nc1cccc(S(=O)(=O)N(C)C)c1 (stereo not drawn)	16	6	1.7	1.3	0	-1.4%
COC(=O)[C@H](CCSC)NC(=O)c1cc2c(cn1)[nH]c1ccccc12	-10	-1	-0.3	6.1	-3	2.7%
Cc1cc(C)n(CC(=O)O)n1	6	0	-0.9	-4.0	-11	-0.4%

A second format for some results above:
molecule: Cc1ccc(-c2cn3nc(N4CCCC(C(=O)NCc5ccc(F)cc5)C4)sc3n2)cc1 (stereo not drawn)
  TRPML1 inh: 11; CtBP-E1A blk: ·; TRPML1 ag: 0.8; D2 ag: ·; Six1-Eya2 inh: ·; PINK1 expr mod: 0.4%
molecule: Cc1ccc(-c2cnn(-c3ccccc3)c2N)cc1
  TRPML1 inh: 1; CtBP-E1A blk: -20; TRPML1 ag: 3.4; D2 ag: -1.9; Six1-Eya2 inh: -16; PINK1 expr mod: -1.0%
molecule: COC(=O)[C@H](CCSC)NC(=O)c1cc2c(cn1)[nH]c1ccccc12
  TRPML1 inh: -10; CtBP-E1A blk: -1; TRPML1 ag: -0.3; D2 ag: 6.1; Six1-Eya2 inh: -3; PINK1 expr mod: 2.7%

New compounds follow:
SMILES	TRPML1 inh	CtBP-E1A blk	TRPML1 ag	D2 ag	Six1-Eya2 inh	PINK1 expr mod
Cc1cc(N2CCN(C3CCCCC3)CC2)nc2cccc(O)c12	-1	-3	-0.7	-6.9	-1	7.0%
FC(F)(F)c1cnc(Sc2nc3nccc(-c4ccc(Cl)cc4)n3n2)c(Cl)c1	3	-1	1.3	-1.5	0	6.0%[38.3 µM]
Cc1cccc(C(=O)O/N=C2\CCCc3ccccc32)c1	45	30	3.4	2.5	18	1.1%
Cc1cccc(NC(=O)CSCC(=O)N2CCCc3ccccc32)c1	8	-7	0.2	-4.2	7	-1.5%
Cc1ccc(C)c(CN2CCC(n3nccc3NC(=O)CCCc3ccccc3)CC2)c1	-5	0	0.0	-1.3	0	?
CCc1ccccc1NC(=O)Cc1ccc(-n2cccc2)cc1	-15	7	2.3	-0.5	2	1.7%
Cn1cc(CCCC(=O)NCc2ccc(F)cc2)c2ccccc21	-12&22	0	0.9&2.0	-4.2	-13	2.4%&1.0%
CCc1cccc(NC(=O)CCCn2nc(CC)n3c(cc4occc43)c2=O)c1	6	·	-0.1	-6.1	-5	-0.2%
COc1ccc(C2=NC(=O)/C(=C\c3cc(OC)c(OC)c(OC)c3)O2)cc1	3	27	-0.3	-4.6	18	?
CCOc1ccccc1C1CC(=O)NC(C)=C1C(=O)OCc1ccc(C)cc1 (stereo not drawn)	13	·	1.7	·	·	1.0%
CCOc1ccc(NC(=S)NC(C)C(c2ccccc2)N2CCN(C)CC2)cc1 (stereo not drawn)	8	2	2.1	-2.9	-5	2.4%
Cc1cc(O)c(C(=O)Cc2csc(C)n2)c(O)c1	41	·	1.6	-5.7	0	0.8%
CC(NC(=O)CCn1nc(-c2ccc(Cl)cc2)ccc1=O)c1ccccc1 (stereo not drawn)	-6	3	-0.5	-5.7	3	1.4%
Cc1cc(OC(C)C(=O)N(Cc2cccs2)C2CCS(=O)(=O)C2)ccc1Cl (stereo not drawn)	-3	1	-0.3	-1.5	3	2.2%
CC1CCc2cc(F)ccc2N1C(=O)C1(C)CC1(Cl)Cl (stereo not drawn)	4	3	-0.3	-1.2	0	-3.6%[38.3 µM]
Cc1ccc2c(c1)N(CC(=O)N1CCc3ccccc3C1)C(=O)CO2	-2	9	0.4	-3.4	0	-2.2%[38.3 µM]
CCCCN1CCCCC1C(=O)Nc1c(C)cccc1C (stereo not drawn)	44	2	-0.9	4.2	1	0.6%
Nc1nc(N)c2[nH]c(=S)[nH]c2n1	16	?	1.1	1.0	?	0.1%
COC(=O)c1nc(-c2ccccc2)nc(-c2ccccc2)c1C(=O)OC	38	-15	3.1	3.2	5	0.3%
CN(C)c1ccc(C(=O)C(O)c2ccccc2Cl)cc1 (stereo not drawn)	11	-3	2.7	0.0	-5	2.2%
CC(Sc1nc(-c2ccccc2)cc(C(F)(F)F)n1)C(=O)Nc1sc2c(c1C(N)=O)CCC2 (stereo not drawn)	-8	-2	0.7	-1.7	4	0.7%
Cc1cccn2c(=O)nc(SCC(=O)c3ccccc3)nc12	-12	-7	-1.0	-2.0	4	1.0%
COCCCNc1ncnc2c1c(-c1ccccc1)cn2-c1ccc(C)c(Cl)c1	17	·	0.2	·	·	1.5%
COc1ccccc1-n1cn[nH]c1=S	22	1	0.7	0.9	3	2.1%
S=C(Nc1cccc(Cl)c1)Nc1ccc2cn[nH]c2c1	-9	0	0.7	2.5	-6	4.0%

Single records, as listed above. Screens in order: TRPML1 inh	CtBP-E1A blk	TRPML1 ag	D2 ag	Six1-Eya2 inh	PINK1 expr mod
`COc1ccc(C2=NC(=O)/C(=C\c3cc(OC)c(OC)c(OC)c3)O2)cc1` is listed as 3	27	-0.3	-4.6	18	?
`CCOc1ccccc1C1CC(=O)NC(C)=C1C(=O)OCc1ccc(C)cc1` (stereo not drawn) is listed as 13	·	1.7	·	·	1.0%

Two neighbouring compounds already listed, quoted:
SMILES	TRPML1 inh	CtBP-E1A blk	TRPML1 ag	D2 ag	Six1-Eya2 inh	PINK1 expr mod
COc1ccccc1-n1cn[nH]c1=S	22	1	0.7	0.9	3	2.1%
S=C(Nc1cccc(Cl)c1)Nc1ccc2cn[nH]c2c1	-9	0	0.7	2.5	-6	4.0%

(list continues)
SMILES	TRPML1 inh	CtBP-E1A blk	TRPML1 ag	D2 ag	Six1-Eya2 inh	PINK1 expr mod
CC(=O)C1=C(O)C(=O)N(Cc2ccco2)C1c1cccc(F)c1 (stereo not drawn)	4	6	-0.4	4.9	5	-0.3%
COc1ccc2c(c1)cc(C(=O)N[C@@H](Cc1ccccc1)C(=O)N[C@@H](C)C(=O)O)n2C	-13	-4	-0.7	-3.8	-5	0.5%
CC(NNC(=S)N1CCN(c2ccccn2)CC1)c1nccc2ccccc12 (stereo not drawn)	-10	3	1.2	-2.9	-92*	-5.5%
O=C1CCC/C(=N/NC(=O)c2ccc(NS(=O)(=O)c3cccs3)cc2)C1	11	-11	-0.2	-2.5	-1	1.3%
CC(C)c1ccccc1NC(=S)N(C)C	0	1	0.6	-0.5	0	0.2%
COc1ccc(CC(=O)n2nc(-c3ccc(Cl)cc3)nc2NCc2ccco2)cc1	11	3	-0.1	-1.1	-3	5.8%[38.3 µM]
O=C(Nc1cccc(C(F)(F)F)c1)c1cccnc1NCCO	-1	10	0.4	1.4	5	-1.4%
COc1ccc(NC(=O)Cn2nc(Cc3cccnc3)c3ccccc3c2=O)cc1OC	-12	7	0.1	-2.7	0	2.9%
O=C(CC1C(=O)NCCN1C(=O)Nc1ccc(F)cc1F)Nc1ccc(F)cc1 (stereo not drawn)	8	14	-0.2	-1.2	5	0.3%
O=C1ON=C(c2ccccc2)/C1=C/c1ccc(-c2ccccc2[N+](=O)[O-])o1	4	11	1.1	-0.7	5	-5.7%
COCCNC(=O)C(Cc1c[nH]c2ccccc12)NC(=O)OCc1ccccc1 (stereo not drawn)	10	11	0.2	4.4	-7	2.0%
Cc1cc(CN(C)C(=O)CC2C(=O)NCCN2Cc2ccc(F)c(F)c2)on1 (stereo not drawn)	-2	4	-0.1	0.4	7	-1.5%
O=C(Nc1ccc(Cc2ccc(NC(=O)N3CCOCC3)cc2)cc1)N1CCOCC1	10	9	0.3	-4.5	-3	-0.5%
CCCOc1cccc(C(=O)Nc2ccc(Br)cc2F)c1	9	5	2.1	-2.3	15	?
CCn1c(N)cc(=O)[nH]c1=S	0	-2	0.1	-5.2	-3	5.2%
